Screening data: PubChem BioAssay, National Center for Advancing Translational Sciences (NCATS)
Cruzain noTriton: blocks cruzain activity in detergent-free assay. purified cruzain, Z-FR-AMC fluorescence, no detergent. AID 1476. P25779. 200,000 tested, 2.3% active. Potency, µM, for inactives: max response, negative = inhibition, most hits filed as inhibitors;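 also: plate controls were enzyme without inhibitor for no effect and buffer without enzyme for full effect; nearly all actives have a fitted effect of over 40% in size; top concentration of the series not given in the record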
Target sequence (P25779 123-467 limits assumed): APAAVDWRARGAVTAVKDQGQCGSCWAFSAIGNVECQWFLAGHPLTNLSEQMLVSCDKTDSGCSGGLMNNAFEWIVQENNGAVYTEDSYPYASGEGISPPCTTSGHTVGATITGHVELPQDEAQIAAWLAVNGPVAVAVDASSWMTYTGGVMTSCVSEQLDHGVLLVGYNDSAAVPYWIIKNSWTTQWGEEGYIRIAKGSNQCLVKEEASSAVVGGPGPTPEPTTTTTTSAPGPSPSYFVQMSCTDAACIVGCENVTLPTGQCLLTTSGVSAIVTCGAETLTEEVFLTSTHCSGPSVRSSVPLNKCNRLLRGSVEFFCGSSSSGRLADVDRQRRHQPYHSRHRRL
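Purified cruzain at 1.5 nM, pre-incubated 15 min with compound at room temperature in 100 mM sodium acetate pH 5.5, 5 mM DTT, 0.00005% Triton X-100. Reaction started with 2 uM Z-FR-AMC; AMC fluorescence increase over 60 s gives rate.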
MARV entry inh: inhibitors of Marburg virus binding or cell entry; Marburg virus pseudotyped entry inhibition, cell reporter; control for the full effect not named in the record; about a third of the inactives were read at about 46 µM; Potency, µM (highest dose often 37.8 µM), for the others: at the top dose activity change, negative = inhibition, most hits filed as inhibitors; 300,000 tested, 1.8% active; AID 540276; active = well fitted inhibition curve with a large enough effect; inconclusive = small, poorly fitted or top-dose-only effect, or effect the other way; inactive = flat fitted curve, though single readings scatter; tested in HEK293 cells; about a fifth of its hits are not listed in these tables; also: % is scaled to controls: 0 for no effect and ±100 for the full control effect; luciferase read-out
NS1 inh: inhibitors of influenza NS1 protein function; AID 2326; S. cerevisiae slowed by influenza A NS1, growth recovery by OD600; Potency, µM (titrated, usually from 46.1 µM), for inactives: at the highest dose activity, positive = more growth; 270,000 tested, 0.4% active; active means well fitted rising curve with a large enough effect; inconclusive means small, poorly fitted or top-dose-only effect; inactive means no such curve, though single readings can be large or run the other way; also: nearly all actives have a fitted effect of over 50% in size
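Read-out: OD600 growth recovery of NS1-expressing budding yeast. Cells grown overnight at 30C in -URA glucose medium, washed, resuspended and diluted 1:100 in 2% galactose assay medium, pH 6.0. Same strain lacking NS1 served as positive control.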
SARS PLP yeast: inhibitors of SARS-CoV papain-like protease in yeast; S. cerevisiae expressing SARS-CoV PLpro, growth rescue; control for the full effect not named in the record; Potency, µM (top dose mostly 32.9 µM), for inactives: at the highest dose activity, positive = growth rescue; 330,000 tested, 0.19% active; active means well fitted rising curve with a large enough effect; inconclusive means small, poorly fitted or top-dose-only effect; inactive means no such curve, though single readings can be large or run the other way; also: 0% is about no effect; nearly all actives have a fitted effect of over 55% in size; growth read by luminescence after 48 h
StopGo reporter: lowers the luciferase signal of an FMDV 2A StopGo reporter | human cells with a luciferase reporter of 2A StopGo recoding; control for the full effect not named in the record | AID 1159524 | Potency, µM (doses to about 57.9 µM), inactives show top-dose signal change, negative = less light | 410,000 tested, 1.2% active; active = well fitted falling curve with a large enough effect; inconclusive = small, poorly fitted or top-dose-only effect; inactive = no such curve, though single readings can be large or run the other way; tested in HEK293T cells; also: % is scaled to controls: 0 for no effect and ±100 for the full control effect; nearly all actives have a fitted effect of over 45% in size; luciferase light after 4 h
RE007 growth inh: less growth of the S. pombe RE007 Vpr strain | 360,000 tested, 0.21% active | AID 651644 | Potency, µM (top dose mostly 92.2 µM), for inactives: at the highest dose activity change, negative = less growth | S. pombe RE007 Vpr strain, BacTiter-Glo ATP luminescence, 24 h; control for the full effect not named in the record; active = well fitted falling curve with a large enough effect; inconclusive = small, poorly fitted or top-dose-only effect; inactive = no such curve, though single readings can be large or run the other way;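 also: % is scaled to controls: 0 for no effect and ±100 for the full control effect; nearly all actives have a fitted effect of over 50% in size; the assay follows cell death caused by Vpr and the record does not say whether a fall means rescue or toxicity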
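Fission yeast RE007 carrying one integrated HIV-1 vpr copy, seeded at OD 0.01 in PMG+AL medium with 23 nL pinned compound. Grown 24 h at 30 degrees; viability read by BacTiter-Glo luminescence after 5 min.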
Cruzain Triton: cruzain (T. cruzi) inhibition with detergent; purified cruzain, Z-FR-AMC fluorescence, 0.01% Triton; P25779; Potency, µM, for the others: max response, negative = inhibition, hits mostly inhibitors; 200,000 tested, 0.43% active; AID 1478;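 also: plate controls were neutral wells for no effect and buffer without enzyme for full effect; nearly all actives have a fitted effect of over 40% in size; top concentration of the series not given in the record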
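Compounds were screened in titration against cruzain (1.5 nM) with 0.01% Triton X-100 to counter colloidal aggregation. Activity was the AMC fluorescence increase over 60 s after adding 2 uM Z-FR-AMC at pH 5.5.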
Lassa entry inh: blocks Lassa virus binding to or entry into cells | Lassa virus pseudotype entry inhibition, cell reporter; control for the full effect not named in the record | Potency, µM (series often up to 37.9 µM), without a hit: top-dose activity change, negative = inhibition, actives largely listed as inhibitors | 300,000 tested, 1.2% active | AID 540256; active means well fitted inhibition curve with a large enough effect; inconclusive means small, poorly fitted or top-dose-only effect, or effect the other way; inactive means flat fitted curve, though single readings scatter; tested in HEK293 cells; also: % is scaled to controls: 0 for no effect and ±100 for the full control effect; nearly all actives have a fitted effect of over 50% in size; luciferase read-out
* = called active by the depositor; ? = inconclusive; nt = not tested or not shown; & = joins results of further samples; [ ] = another dose, or the depositor's remark. Unless noted, calls follow the shape of the dose curve; as a rule, active = well fitted curve in the direction sought with a large enough effect; inconclusive = small, poorly fitted or top-dose-only effect, or another doubt; inactive = no such curve, though single readings can be large; an effect the other way counts as inactive or inconclusive. Potency is read from the fitted curve at half-maximal effect.

SMILES	Cruzain noTriton	MARV entry inh	NS1 inh	SARS PLP yeast	StopGo reporter	RE007 growth inh	Cruzain Triton	Lassa entry inh
COC(=O)[C@@]1(Cc2ccccc2)[C@@H]2C(=CC(=O)[C@H]2CC(=O)C(=O)N(C)C)CN1C(=O)c1ccccc1	?	21µM*	-6%	6%	14µM*	-22%	-1.3%&-1.8%	?
NC(N)=NS(=O)(=O)c1ccc(NC(=S)NC(=O)/C=C/c2ccccc2)cc1	nt	nt	16%	3%	-11%	0%	nt	nt
COc1ccc(C2(CNC(=O)/C=C\c3ccco3)CCCC2)cc1OC	?	17%	2%	-3%	-29%	-10%	-18%	10%
Cc1ccc(C(=O)Oc2cccnc2)cc1[N+](=O)[O-]	10%	-11%	-12%	3%	-7%	-4%	-3.5%	6%
CCN1CCN(C(CNS(=O)(=O)c2ccc(C)cc2)c2ccccc2)CC1 (configuration not stated)	nt	nt	-9%	-4%	26%	-3%	nt	nt
C=CCn1c(O)c(N=NC(=O)CNC(=O)c2ccncc2)c2ccccc21	nt	-29%[46.1 µM]	10%	4%	24%	-2%	nt	-4%[46.1 µM]
C=CCNCCCCOc1c(Cl)cc(C)cc1Br	-7%	-15%	-8%	-5%	2%	1%[3.69 µM]	6.5%	-5%
CCCC1=Nc2cc(C(=O)N3CCC(C(N)=O)CC3)ccc2Sc2ccccc21	nt	nt	19%	-2%	12%	1%	nt	nt
O=C(Nc1cc(=O)[nH]c(=O)[nH]1)c1cc(Cl)ccc1Cl	nt	nt	-8%	?	-24%	-8%	nt	nt
COCCSc1nnc(NC(=O)C2CC(=O)N(c3ccccc3)C2)s1 (configuration not stated)	nt	3%[46.1 µM]	nt	2%	-21%	-13%	nt	3%
COc1cc2nc(CN3CCOCC3)n(CC(=O)NCC(F)(F)F)c(=O)c2cc1OC	nt	nt	0%	0%	-6%	-1%	nt	nt
CCCC1=C(C(=O)OCC)C(c2ccco2)C(C#N)=C(N)O1 (configuration not stated)	nt	7%[46.1 µM]	nt	1%	7%	0%	nt	-3%[46.1 µM]
COc1ccc(Br)cc1C(=O)NC(=S)Nc1cc(-c2nc3ccccc3[nH]2)ccc1C	10µM*	?	3%	-24%	1%	-8%	-4.2%	12%
NC(=O)C1CCN(C(=O)/C(=C/c2ccccc2)NC(=O)c2ccccc2)CC1	nt	nt	2%	0%	-13%	11%	nt	nt
Cc1ccc(NC(=O)C2C3C=CC4(O3)C2C(=O)N(CCCN2CCOCC2)C4C(=O)NC2CCCCC2)cc1Cl (configuration not stated)	nt	?	1%	-1%	-17%	14%	nt	10%[46.1 µM]
CC1(C)CC(=O)C=C(NCc2ccncc2)C1	-6%	16%&16%	2%	3%	17%	15%	0.5%	11%
COc1ccc2c(C)c(C)c(=O)oc2c1OC	nt	15%[46.1 µM]	-3%	0%	-6%	-29%	nt	nt
O=C(OCC#CCSc1nnc(-c2ccncc2)o1)c1sc2ccccc2c1Cl	2%	12%	2%	1%	-7%	2%	-2.1%	19%
O=C(NCC1CCCO1)c1cccc(Oc2ccccc2)c1 (configuration not stated)	nt	?	-20%	?	4%	0%	nt	26%[46.1 µM]
COc1ccccc1NC(=O)c1c(C)nn(-c2ccccc2)c1Cl	nt	nt	-42%	-15%	3%	-11%	nt	nt
COc1cc(CNC(=O)c2cc(C(=O)NCc3cc(OC)cc(OC)c3)n(C)n2)cc(OC)c1	nt	-2%	nt	-7%	-28%	3%	nt	3%
O=c1[nH]c(=S)n(CCC2=CCCCC2)c(O)c1/C=N/Nc1ccccc1	nt	nt	?	-1%	-9%	-5%	nt	nt
CCNC(=O)C(=O)Nc1cc2c3c(c1)CCC(=O)N3CCC2	nt	nt	-5%	-2%	-2%	5%	nt	nt
COC(=O)[C@@H](NC(=O)O[C@H]1C(=O)c2ccc(OC)cc2O[C@@H]1c1ccc2c(c1)OCO2)C(C)C	-10%&2%	1%	-35%	-12%	nt	nt	-2.9%&-5.9%	?
Cc1cccc(N2C(=O)/C(=C/c3ccc(N4CCN(C)CC4)o3)C(=O)NC2=S)c1C	10%	-15%	45%	-7%	-17%	-9%	-21%	-12%
CCOC(=O)C1CCN(C(=O)Nc2ccc(Cl)cc2)CC1	15%	25%	-13%	2%	16%	3%	-3.0%	?
Cc1cccc(OP(=O)(Oc2cccc(C)c2)OC(c2ccccc2)C(F)(F)F)c1 (configuration not stated)	-15%	?	5%	-20%	-26%	-8%	-3.1%	10%
CC1=C([N+](=O)[O-])C(c2cccc(Br)c2)C2=C(N1)c1ccccc1C2=O (configuration not stated)	?	1.3µM*	5%	-17%	?	7%	-3.2%	?
O=C1C2CCCN2C(=O)N1CCCCN1CCN(c2ccccc2)CC1 (configuration not stated)	4%	6%	11%	5%	-6%	2%	-0.1%	-14%
COc1cccc(C2c3[nH]c4ccccc4c3C[C@H]3C(=O)N(CCCOC(C)C)CC(=O)N23)c1 (some centres not stated)	nt	nt	1%	0%	0%	4%	nt	nt
O=C(Cc1ccccc1F)Nc1cc(S(=O)(=O)N2CCOCC2)ccc1N1CCCC1	nt	-16%[46.1 µM]	nt	1%	-2%	-11%	nt	?
O=C(NCCN1CCN(Cc2ccccc2)CC1)C1c2ccccc2C(=O)N2CCc3ccccc3C12 (configuration not stated)	-6%	6%&6%	-2%	-1%	-15%	-7%	-0.4%	?
COc1ccc(CCN2C(=NC(C)=O)SC3CS(=O)(=O)CC32)cc1OC (configuration not stated)	nt	27%	0%	1%	-11%	-5%	nt	4%
CC(=O)C1=C(O)C(=O)N(CCCO)C1c1ccccc1 (configuration not stated)	-15%	19%	9%	3%	nt	-3%	0.7%	16%
O=C(/C=C/c1ccc2c(c1)OCO2)NCc1ccc(F)cc1	3%	6%	-4%	-4%	-2%	9%	-4.1%	?
CS(=O)(=O)N(CC(=O)NC1CCCC1)Cc1ccc(F)cc1	nt	22%[14.2 µM]	nt	2%	-14%	5%	nt	9%
Fc1ccc(COc2ccc(Br)cc2CNCc2ccncc2)cc1	1%	?	-31%	-23%	?	-10%	-1.4%	-21%
CC(C)n1cnnc1SCC(=O)NC(=O)c1ccccc1	nt	22%[46.1 µM]	nt	?	-6%	15%	nt	13%
CCOC(=O)c1c(N2C(=O)C3C4C=CC(O4)C3C2=O)sc2c1CCCC2 (configuration not stated)	19%	2%	-61%	nt	-3%	?	5.6%	3%
CCOC(=O)c1nn(-c2ccccc2)c(=O)cc1OCC(=O)Nc1cc(C)ccc1C	nt	?	nt	-3%	-23%	-10%	nt	9%[46.1 µM]
COc1cccc(C2c3c(-c4ccccc4)n[nH]c3C(=O)N2c2ccc(C(=O)O)cc2)c1 (configuration not stated)	-7%	5%	?	8%	nt	4%	0.6%	20%
Cc1ccc(S(=O)(=O)NCC(=O)N2CCc3ccccc3C2)cc1	nt	-6%[46.1 µM]	7%	4%	23%	-13%	nt	-2%[46.1 µM]
O=C(COc1ccccc1)Nc1sc2c(c1C(=O)Nc1ccccc1)CCCCC2	8%	-1%[46.1 µM]	nt	nt	14%	nt	-4.7%	-12%[46.1 µM]
CCc1cc2c(=O)n(-c3ccccc3)cnc2s1	12%	?	-16%	2%	37%[activator]	10%	1.5%	13%
Cc1ccc2c(c1)N(CC(=O)N1CCCc3ccccc31)C(=O)CO2	12%	20%	1%	5%	-22%	-1%	5.1%	-10%
Cc1cc(C)n2nc(SCC(=O)N3CCC(C(=O)O)CC3)nc2n1	nt	-2%	nt	-4%	5%	-1%	nt	7%
CCCCNC(=O)C1CCN(S(=O)(=O)c2cc(Br)cc3c2N(C(=O)CC)CC3)CC1	?	14%[46.1 µM]	nt	nt	-6%	nt	-1.6%	3%[46.1 µM]
CC(NCc1ccccc1O)C12CC3CC(CC(C3)C1)C2 (configuration not stated)	nt	nt	-8%	0%	?	2%	nt	nt
Cc1cccc(CN2CCCC(C(=O)c3ccc4c5c(cccc35)CC4)C2)n1 (configuration not stated)	nt	nt	1%	7%	-19%	-17%	nt	nt
CN(C)c1cccc2c1c(NC(=O)c1ccc(Cl)cc1)nn2C	nt	-23%[46.1 µM]	-7%	-2%	3%	6%	nt	-30%[46.1 µM]
Cc1ccnc(NC(=O)c2ccc(COc3c(F)c(F)cc(F)c3F)o2)c1	nt	14%	8%	2%	15%	-22%	nt	-13%
COc1ccc(CN(C)Cc2cc(=O)n3ccsc3n2)c(OC)c1OC	nt	8%[46.1 µM]	nt	1%	-18%	8%	nt	3%[46.1 µM]
CN(C)N1C(N)=C(C#N)C(c2ccccc2Cl)C2=C1CCCC2=O (configuration not stated)	nt	?	2%	1%	-3%	-2%	nt	1%
CCOc1cc(/C=C2/NC(=O)N(CC(=O)Nc3cccc(C)c3)C2=O)ccc1OCC(N)=O	nt	?	9%	0%	-1%	-10%	nt	-21%
CCOc1ccc(NC(=O)CSc2ccc3ccccc3n2)cc1	-20%	-2%[46.1 µM]	nt	nt	-1%	nt	-8.4%	0%[46.1 µM]
NC(=O)C1CCN(C(=O)Cc2ccc(-c3ccccc3)cc2)CC1	nt	14%[46.1 µM]	22%	-2%	48%[activator]	-5%	nt	nt
Oc1c(Br)cc(Br)cc1CNn1cnnc1	nt	-27%[46.1 µM]	-1%	3%	-19%	-12%	nt	-3%[46.1 µM]
O=C1CCCN1CCCn1cnc2c([nH]c3ccc(F)cc32)c1=O	3%	2%	-6%	2%	18%	10%	-3.9%	9%
COC(=O)c1ccc(CSc2nc3ccccc3o2)cc1	-10%	?	-43%	-16%	0%	-12%	-2.5%	?
COc1ccc(NC(=O)C(c2ccccc2)N2CCN(c3ccccn3)CC2)cc1Cl (configuration not stated)	nt	?	nt	1%	-7%	-6%	nt	?
CCn1ccc(=N)cc1	-7%	4%[46.1 µM]	?	-2%	-14%	-11%	9.4%	-10%
O=C(C[N+]1(CC#Cc2ccccc2)CCOCC1)c1ccc(Cl)cc1	nt	-7%[46.1 µM]	nt	-1%	?	-14%	nt	3%
